# Source: PubChem BioAssay (National Center for Advancing Translational Sciences (NCATS))
# 2A Renilla – FMDV 2A StopGo reporter, Renilla signal; HEK cells with a luciferase reporter of 2A StopGo recoding; Potency, µM (highest dose often 57.5 µM), for inactives: at the top dose signal change, negative = less light; AID 1745857; 0.32% of 120,000 active; active means well fitted falling curve with a large enough effect; inconclusive means small, poorly fitted or top-dose-only effect; inactive means no such curve, though single readings can be large or run the other way; further: nearly all actives have a fitted effect of over 55% in size; overnight with compound
# 2A firefly – lowers the firefly signal of an FMDV 2A StopGo reporter. Potency, µM (highest dose often 57.5 µM), for inactives: at the highest dose signal change, negative = less light. HEK cells with a luciferase reporter of 2A StopGo recoding. 0.23% of 120,000 active; active = well fitted falling curve with a large enough effect; inconclusive = small, poorly fitted or top-dose-only effect; inactive = no such curve, though single readings can be large or run the other way; further: nearly all actives have a fitted effect of over 60% in size; overnight with compound
# The depositor's hits bear a star; u = inconclusive; [ ] = remark or other dose. On the % scale 0 is the no-effect control and ±100 the full control effect; potency means the concentration at half of the fitted maximal effect. Hits appear at their usual frequency, and some 0.55% of all compounds hit somewhere here.
SMILES,2A Renilla,2A firefly
Cc1ccccc1N1CCN(CCS(=O)(=O)c2ccc(Br)cc2)CC1,-14%,-2%
Cc1cccc(NS(=O)(=O)c2ccc3c(c2)CC(C)N3C(=O)C2CCC2)c1C (stereo not given),u,u
c1ccc(CCNCC2CCCO2)cc1 (stereo not given),6%,0%
COc1ccc(-c2cc(-c3ccccc3)nc3c2COc2ccc(Cl)cc2-3)cc1,-5%,-8%
Cc1cc(C)n(-c2nc3ccccc3nc2Nc2cccc(F)c2)n1,-14%,-5%
CC(=O)c1c(C)[nH]c(-c2csc(CC(=O)Nc3ccc(C)cc3)n2)c1C,127%[activator],88%[activator]
Cc1ccc(COc2cccc3cc(-c4noc(-c5ccc(C)cc5)n4)c(=O)oc23)cc1,-11%,-16%
CN(Cc1ccccc1)C(=O)c1cc2c(s1)-c1ccc(Cl)cc1SC2,95%[activator],49%[activator]
OCc1cccc(Nc2ncnc3ccsc23)c1,-16%,43%[activator]
O=C(Cc1ccc(Br)cc1)Nc1cc(Cl)ccc1C(=O)O,-5%,2%
COc1cccc(NC(=O)C2CCCN(S(=O)(=O)c3c(C)nn(C)c3C)C2)c1 (stereo not given),-7%,-24%
COc1ccc(NC(=O)Cn2c(=O)n(Cc3ccccc3Cl)c(=O)c3cc(OC)c(OC)cc32)cc1OC,-11%,-4%
CCOCCc1nn2c(=O)cc(COC(=O)c3ccccc3OC)nc2s1,-14%,-14%
CCCCN(C)c1nc2c(S(=O)(=O)c3ccc(CC)cc3)nnn2c2ccc(Cl)cc12,2%,-7%
CC(c1cccc([N+](=O)[O-])c1)N(C)C(=O)c1ccc2c(c1)NC(=O)CS2 (stereo not given),80%[activator],-6%
CC(=O)OCC1OC2OC(C)(C)OC2C2OC(C)(C)OC12 (stereo not given),-2%,-13%
CCOc1ccc(CNC(=O)C2CCN(C(=O)N3CC(CC)Oc4ccccc43)CC2)cc1 (stereo not given),-15%,-8%
CCOc1ccc(NC(=O)Cn2c(=O)n(CCc3ccccc3)c(=O)c3c4c(sc32)CCCC4)cc1,-8%,-9%
COc1ccccc1CNC(=O)CSc1ccc(-c2sc(-c3ccccc3)nc2C)nn1,9%,-11%
CCOc1ccccc1NC(=O)CSc1nnc2c3cc(-c4ccc(Cl)cc4)nn3ccn12,-12%,125%[activator]
CC(C(=O)NC(=O)NC1CCCC1)N(C)CC(=O)Nc1ccc(Cl)c(C(F)(F)F)c1 (stereo not given),16%,3%
CCC1CCC(c2ccc(C(=O)CCN(C)C)cc2)CC1 (stereo not given),10%,42%[activator]
CC1CCN(S(=O)(=O)c2ccc3c(c2)N(CC(=O)NCCN(C)C)C(=O)CS3)CC1,-1%,-22%
COc1cc(C2c3c(oc4ccccc4c3=O)C(=O)N2c2nnc(C(C)C)s2)cc(OC)c1OC (stereo not given),0%,-17%
CCCN1CCN(c2cc(C(=O)O)c3cc(NC(=O)C(C)C)ccc3n2)CC1,-11%,-9%
Cc1cc2nn(-c3ccccc3)nc2cc1NC(=O)Cc1ccc(Cl)cc1,-8%,82%[activator]
CCOC(=O)c1c(S(=O)(=O)NCC(=O)N2CCN(c3ccccc3OC)CC2)c(C)n(C)c1C,52%[activator],4%
CCOC(=O)c1ccc(Oc2nc(N(C)C)nc(N3CCOCC3)n2)cc1,4%,7%
O=C1CSC2(C(=O)N(Cc3ccccc3)c3ccccc32)N1c1cccc(F)c1 (stereo not given),-1%,-9%
COC(=O)c1sccc1S(=O)(=O)N(CC(=O)Nc1cc(C)cc(C)c1)c1ccc(Cl)cc1,-9%,-20%
Cc1nnc(SCC(=O)NCc2ccc(N(C)C)cc2)c2nn(-c3ccccc3)c(C)c12,-23%,-16%
Cc1cccc(Cn2c(N3CCN(C)CC3)nc3c2c(=O)[nH]c(=O)n3C)c1,-3%,-5%
Fc1ccc(-c2nn(-c3ccccc3Cl)c3c2cnc2ccccc23)cc1,3%,-5%
O=C(Cn1ccn2nc(-c3ccccc3)cc2c1=O)N1CCN(c2ccccc2F)CC1,14%,-1%
COc1cc(CN2CCN(S(=O)(=O)c3ccc(C)cc3)CC2)cc(OC)c1O,-3%,-1%
CN(C)CCCNc1oc(-c2ccc([N+](=O)[O-])cc2)nc1C#N,35%,76%[activator]
Cc1ccsc1CN(C)C(=O)CC(C)C,-6%,12%
COCCn1c(SCC(=O)c2cccc(Cl)c2)nc2cc(C(=O)NCC(C)C)ccc2c1=O,28%,0%
CCCCN(Cc1ccccc1)c1ccc(NS(=O)(=O)c2ccc3c(c2)CCCC3)cc1C(=O)O,139%[activator],15%
O=C(c1cc2c(s1)-c1ccccc1OC2)N1CCN(c2ccccc2)CC1,-3%,-3%
CCOC(=O)Cc1c(C(=O)OCC)nnc2c(-c3ccc(Cl)cc3)c(C)nn12,4%,-7%
CCCn1nc(C(=O)N2CCN(c3ccc(C(C)=O)cc3)CC2)c2ccccc2c1=O,22%,4%
O=C(O)c1cc(Cl)c(I)c(Cl)c1,15%,0%
Cc1ccc(OCC(=O)Nc2cccc(C(=O)OCc3cc(=O)n4cc(C)sc4n3)c2)cc1,-7%,-18%
Cc1ccc(-c2nc3ccccc3o2)cc1NC(=O)c1ccc([N+](=O)[O-])o1,-9%,171%[activator]
CC(O)CSc1nc2c(c(=O)n(C)c(=O)n2C)n1Cc1ccccc1Cl (stereo not given),22%,14%
NC(=O)CN1CCC(NC(=O)c2ccc(F)cc2)CC1,1%,9%
N#Cc1cnc2ccc(Cl)cc2c1Nc1cccc(C(F)(F)F)c1,u,u

# Brought forward from above: 7 entries, then new ones.
SMILES,2A Renilla,2A firefly
CCCn1nc(C(=O)N2CCN(c3ccc(C(C)=O)cc3)CC2)c2ccccc2c1=O,22%,4%
O=C(O)c1cc(Cl)c(I)c(Cl)c1,15%,0%
Cc1ccc(OCC(=O)Nc2cccc(C(=O)OCc3cc(=O)n4cc(C)sc4n3)c2)cc1,-7%,-18%
Cc1ccc(-c2nc3ccccc3o2)cc1NC(=O)c1ccc([N+](=O)[O-])o1,-9%,171%[activator]
CC(O)CSc1nc2c(c(=O)n(C)c(=O)n2C)n1Cc1ccccc1Cl (stereo not given),22%,14%
NC(=O)CN1CCC(NC(=O)c2ccc(F)cc2)CC1,1%,9%
N#Cc1cnc2ccc(Cl)cc2c1Nc1cccc(C(F)(F)F)c1,u,u
CCN(CC)S(=O)(=O)c1ccc(CNC(=O)c2nn(C)c(=O)c3ccccc23)cc1,14%,16%
Cc1ccc2[nH]c(-c3ccccc3)c(-c3ccccc3)c2c1,33%[activator],0%
COc1ccc(C2N(C(=O)CN3CCOCC3)CCCN2S(=O)(=O)c2ccc(C)cc2)cc1 (stereo not given),28%,-10%
O=C(CSc1nc2ccccc2c(=O)n1CCCN1CCOCC1)c1ccc(F)c(F)c1,-6%,-5%
COc1cccc(NC(=O)Nc2cc(-c3nc4ccccc4o3)ccc2OC)c1,11%,162%[activator]
COc1ccc(C(=O)N/C(=C\c2ccc(-c3cccc(Cl)c3)o2)C(=O)NC(C)(C)C)cc1,23%,6%
COc1ccc(Cn2c(=O)c3cccnc3n(CC(=O)Nc3ccc(C)c(F)c3)c2=O)cc1,-15%,1%
COc1cc(C(C)NCc2csc(C(C)C)n2)ccc1OCCO (stereo not given),5%,6%
O=C(NCCc1c[nH]c2ccc(Cl)cc12)C1CCN(c2nc(Cl)nc3nc[nH]c23)CC1,11%,6%
C=CCNC(=O)C(NC(C)=O)C1CCCC1 (stereo not given),6%,-11%
CCN(CC)c1ccc(NC(=O)C2COc3ccc(OC)cc3C2)c(C)c1 (stereo not given),0%,14%
O=C(COc1ccc2ccc(=O)oc2c1)NC1CCCC1,-6%,22%

# Compounds listed so far containing an NH in an aromatic ring, in the order listed:
SMILES,2A Renilla,2A firefly
CC(=O)c1c(C)[nH]c(-c2csc(CC(=O)Nc3ccc(C)cc3)n2)c1C,127%[activator],88%[activator]
Cc1cccc(Cn2c(N3CCN(C)CC3)nc3c2c(=O)[nH]c(=O)n3C)c1,-3%,-5%
Cc1ccc2[nH]c(-c3ccccc3)c(-c3ccccc3)c2c1,33%[activator],0%
O=C(NCCc1c[nH]c2ccc(Cl)cc12)C1CCN(c2nc(Cl)nc3nc[nH]c23)CC1,11%,6%

# (next part)
SMILES,2A Renilla,2A firefly
CCCCc1nn2c(=O)cc(COC(=O)c3ccc(NC(=O)c4cccs4)cc3)nc2s1,-13%,-19%
CCOC(=O)c1ccccc1NC(=O)Cn1c(=O)n(Cc2nc(C)no2)c(=O)c2ccccc21,-15%,-24%
COC(=O)c1sc(=S)n(-c2cccc(C)c2C)c1N,0%,55%[activator]
CCOc1ccccc1C(=O)NC(C(=O)OCc1ccccc1C)C(C)C (stereo not given),66%[activator],5%
COc1cc(NC(=O)Cn2ccnc2)cc(OC)c1,-16%,-5%
O=C(NCc1ccccc1)c1cc(=O)c2ccccc2o1,15%,21%
COc1ccc(-c2cc(C)no2)cc1S(=O)(=O)CCC(=O)Nc1cc(C)cc(C)c1,0%,-4%
CCOc1ccc(N2CC(NC(=O)C(C)(C)C)CC2=O)cc1 (stereo not given),25%,28%
O=C(COc1ccccc1F)Nc1ccc2nc(SCc3ccccc3)sc2c1,-4%,0%
CN(C(=O)CSc1nnc2[nH]c(=O)cc(-c3ccccc3)n12)c1ccccc1,-6%,-13%
CC1CN(C(=O)N2CCC(C(=O)NCc3ccccc3)CC2)c2ccccc2O1 (stereo not given),11%,-2%
O=C(Cn1nnc(-c2ccc(Cl)cc2)n1)NCc1ccc(F)cc1,-10%,-3%
Cc1ccccc1OCCSc1nc2ccc(NC(=O)c3cccs3)cc2s1,u,u
O=C(CCN1C(=O)c2ccccc2S1(=O)=O)Nc1ccc(C(=O)O)cc1,-1%,11%
CC(Sc1cc(Cl)ccc1Cl)C(=O)NCCc1ccccn1 (stereo not given),13%,11%
Cc1ccc(S(=O)(=O)N2CCN(C(=O)c3nn(C(C)C)c(=O)c4ccccc34)CC2)cc1,18%,5%
Cc1nc(-c2cccnc2)[nH]c(=O)c1CC(=O)N(C)C(C)C(C)(C)C (stereo not given),1%,4%
Cc1cccc(Cn2nnc3c(=O)[nH]c(C4CCN(C(=O)c5ccccc5F)CC4)nc32)c1,0%,-20%
COC(=O)c1ccc(NC(=O)C2=Cc3ccccc3OC=C2)cc1,-1%,15%
COc1ccc(C(=O)Oc2ccc3c(=O)c(-c4ccccc4)coc3c2)cc1,-8%,5%
O=C(OCc1cccnc1)c1nn(Cc2ccccc2)c(=O)c2ccccc12,75%[activator],41%[activator]
CCn1c(=O)n(CC)c2cc(N3CCCCC3)c(NC(=O)Nc3cc(OC)ccc3OC)cc21,u,u
Cn1c(=O)c2c(nc(NC3CCCCC3)n2Cc2cccc(Br)c2)n(C)c1=O,-8%,6%
COc1cc(OC)c(NC(=O)Cn2c(=O)nc(-c3ccccc3)c3ccccc32)cc1Cl,3%,-1%
COC(=O)c1cc(-c2cc(OC)c(OC)c(OC)c2)nc2ccccc12,40%[activator],0%
CCOc1ccccc1NC(=O)C(CC)Sc1nc2ncccc2[nH]1 (stereo not given),14%,-21%
Cc1ccc(C)c(N2CCN(C(=O)c3ccc4c(c3)N(Cc3ccc(F)cc3)C(=O)c3ccccc3S4=O)CC2)c1 (stereo not given),-11%,-16%
Cc1cccc(NC(=O)c2c(Br)sc3c2CCCC3)c1,-2%,36%[activator]
CC(=O)N1CCc2c(sc3c2c(=O)n(-c2ccc(C)cc2)c(=O)n3CC(=O)Nc2ccccc2)C1,142%[activator],232%[activator]
CCOC(=O)c1[nH]c2cc(OC)c(OC)cc2c1NC(=O)CCN1CCC(C(N)=O)CC1,-8%,-13%
CCOc1ccc(C(=O)Nc2ccccc2C(=O)OCc2cc(=O)n3nc(C4CC4)sc3n2)cc1,-11%,3%
COc1ccc2c(CNc3ccccc3C)cc(=O)oc2c1,-4%,3%
N#C/C(=C/c1ccco1)C(=O)NC1CC1,4%,14%
Cc1cc(C)c(/C=N/NC(=O)C2CC23CCC3)c(C)c1 (stereo not given),7%,21%
Cc1cccc(C)c1NC(=O)CN1CCN(Cc2nc3ccccc3o2)CC1,-12%,-7%
N#CC1(NC(=O)CNc2ccc(-c3nnnn3C3CC3)cc2)CCCC1,17%,23%

# Brought forward from above: five entries, followed by the next part.
SMILES,2A Renilla,2A firefly
COc1ccc2c(CNc3ccccc3C)cc(=O)oc2c1,-4%,3%
N#C/C(=C/c1ccco1)C(=O)NC1CC1,4%,14%
Cc1cc(C)c(/C=N/NC(=O)C2CC23CCC3)c(C)c1 (stereo not given),7%,21%
Cc1cccc(C)c1NC(=O)CN1CCN(Cc2nc3ccccc3o2)CC1,-12%,-7%
N#CC1(NC(=O)CNc2ccc(-c3nnnn3C3CC3)cc2)CCCC1,17%,23%
CC(C)(CNC(=O)C1CCN(C(=O)c2ccc(F)cc2)CC1)N1CCCCC1,-10%,-2%
Cc1ccc(CNC(=O)CCc2ncc(-c3c(F)cccc3F)o2)cc1F,6%,7%
C=CCSc1nc2c(c(=O)[nH]c(=O)n2C)n1Cc1cccc(Br)c1,u,u
CC(=O)Oc1c(C)c(C)c2c(c1C)CC[C@@](C)(CCC[C@H](C)CCC[C@H](C)CCCC(C)C)O2,9%,0%[11.5 µM]
CCCNC(=O)c1ccc2c(c1)N(Cc1cccc(C)c1)C(=O)c1ccccc1S2,-5%,22%
